Ecoli growth = E. coli growth inhibition, primary screen, OD600. Escherichia coli growth, 23 h; active compounds read low. OD600 absorbance (concentration not given with the values). hit rate 0.21% among 330,000. AID 1053175, 2014;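 active = OD600 absorbance below the run mean of sample wells minus 3.6 SD, in any replicate, cut at about 0.56 in these data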;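 also: stock transfer was 300 nL into about 60 µL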
Beta2AR agonist = beta2AR agonists driving receptor internalization, primary screen, cell-based, FAP fluorogen, flow cytometry. Beta-2 adrenergic receptor (Homo sapiens), P07550. Am2.2-beta2AR cells; reference of the scale not given here. response, % (no concentration beside the values). hit rate 0.43% among 340,000;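 active = response above a set limit, near 3 SD of response in nonfluorescent compounds, cut at about 42% in these data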;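 also: stock transfer was 100 nL into about 11 µL; a reference agonist was the positive control; negative values mostly stem from fluorescent compounds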
FGF22 binding = binders of human FGF22 protein, primary screen, FGF22 synaptogenesis inhibitor project, biophysical, thermal shift, single point; hit rate 1.5% among 340,000; recombinant FGF22 thermal shift, SYPRO orange fluorescence; percent of sucrose octasulfate shift, DMSO zero; AID 651658, 2012; calls only at 9.99 µM; Fibroblast growth factor 22 (Homo sapiens), Q9HCT0;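 active = melting point raised past a set limit in the mean and every replicate; inconclusive = no clear call; three in four hits are not shown here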
ALR H2O2 inh = inhibitors of human ALR sulfhydryl oxidase, primary screen, biochemical, H2O2 detection, HRP-luminol luminescence, single point; purified ALR, DTT oxidation; inhibition, % (concentration not given with the values); hit rate 3.8% among 290,000; AID 485317, 2010;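 active = mean and each replicate at 75% or more; inconclusive = only one of the two met; inactive = neither met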;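 also: stock transfer was 7.5 nL into about 7.5 µL; 0% = neutral wells and 100% = wells with inactivated enzyme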
Target sequence (P55789 whole entry, looked up): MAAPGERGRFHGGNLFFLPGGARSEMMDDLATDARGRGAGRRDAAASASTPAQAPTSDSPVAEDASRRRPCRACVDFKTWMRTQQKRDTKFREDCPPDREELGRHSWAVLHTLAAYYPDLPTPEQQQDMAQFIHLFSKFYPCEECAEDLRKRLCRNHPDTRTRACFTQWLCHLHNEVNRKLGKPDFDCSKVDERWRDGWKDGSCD
UCH37 DUB inh = inhibitors of human UCH37 deubiquitinase, primary screen, biochemical, Ub-AMC cleavage, fluorescence; Ubiquitin carboxyl-terminal hydrolase isozyme L5 (Homo sapiens), Q9Y5K5; purified proteasome/UCH37; inhibition, % (no concentration beside the values); hit rate 0.33% among 330,000;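 active = mean of two replicates above 20%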;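 also: 0% = compound-free wells with enzyme and 100% = wells lacking proteasome; stock transfer was 100 nL into about 20 µL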
Target sequence (Q9Y5K5 whole entry, looked up): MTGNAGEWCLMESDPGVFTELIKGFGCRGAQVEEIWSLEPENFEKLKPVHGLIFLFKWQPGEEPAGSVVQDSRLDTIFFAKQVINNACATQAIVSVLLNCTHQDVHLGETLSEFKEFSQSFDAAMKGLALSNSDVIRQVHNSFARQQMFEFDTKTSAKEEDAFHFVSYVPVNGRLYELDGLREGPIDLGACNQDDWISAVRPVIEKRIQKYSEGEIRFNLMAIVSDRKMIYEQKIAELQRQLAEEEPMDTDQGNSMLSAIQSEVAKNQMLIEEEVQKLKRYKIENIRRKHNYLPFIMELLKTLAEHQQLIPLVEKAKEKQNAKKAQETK
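Assay system: Proteasome-bound UCH37. Buffer or medium: pH 7.4 Tris-HCl (50 mM) with ovalbumin, ATP-MgCl2, DTT. Incubation: 30 min preincubation with enzyme, 25 min cleavage at room temperature. Measured by: fluorescence, ex 355 nm, em 460 nm. Read-out basis: percent inhibition. Control set: wells without proteasome as full block, compound-free enzyme plus substrate as uninhibited.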
HNF4A DNA FP = change in binding of human HNF4A to DNA, primary screen, biochemical, fluorescence polarization, FITC-DNA; hit rate 0.3% among 360,000; activity change, % at 10 µM; 1 h; in the data active = activity change above about 30%, passing the limit was not always enough;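 also: controls were the assay level and a saturating level of protein; the project sought stronger binding though the title names inhibitors; some compounds called inactive have numbers as strong as hits; positive values seem to mean higher polarization but the record does not say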
Target sequence (P41235 whole entry, looked up): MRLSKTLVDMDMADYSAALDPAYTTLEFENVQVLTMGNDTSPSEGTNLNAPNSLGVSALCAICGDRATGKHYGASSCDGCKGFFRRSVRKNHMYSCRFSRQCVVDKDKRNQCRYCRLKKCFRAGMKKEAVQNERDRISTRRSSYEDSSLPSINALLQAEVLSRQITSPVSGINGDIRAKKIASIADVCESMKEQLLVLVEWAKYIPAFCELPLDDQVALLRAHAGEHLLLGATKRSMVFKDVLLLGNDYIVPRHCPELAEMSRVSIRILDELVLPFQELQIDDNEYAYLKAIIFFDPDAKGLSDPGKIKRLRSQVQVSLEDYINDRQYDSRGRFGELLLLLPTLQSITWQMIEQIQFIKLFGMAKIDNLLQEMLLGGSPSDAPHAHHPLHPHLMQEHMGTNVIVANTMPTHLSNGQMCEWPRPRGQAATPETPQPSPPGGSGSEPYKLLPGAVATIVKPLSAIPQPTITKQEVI
LANA-H2B inh = blockers of LANA interaction with H2A/H2B – biochemical, FP readout, HTS, primary screen; Protein LANA1 (Human herpesvirus 8 type P (isolate GK18)), Q9QR71; cell-free LANA-H2A/H2B peptide, fluorescence polarization; inhibition, % (concentration not given with the values); hit rate 0.6% among 320,000; AID 2629, 2010; in the data active = inhibition mostly above about 10%, no sharp cut-off; inactive = mostly below about 6.7%;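 also: stock transfer was 7.5 nL into about 10 µL; 0% = median of vehicle wells and 100% = median of positive control wells; one replicate is shown; the record names a cut of 25% in any replicate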
Numbers without * were called inactive; i = inactive; ? = inconclusive; . = no result given.

Value order: Ecoli growth	Beta2AR agonist	FGF22 binding	ALR H2O2 inh	UCH37 DUB inh	HNF4A DNA FP	LANA-H2B inh
- O=C(Cc1ncc(C(F)(F)F)cc1Cl)N1CCN(c2ccc(F)cc2)CC1
  0.64	-1	.	16	1.2	2.7	4.2
- COc1ccccc1NC(=O)C1CCN(S(=O)(=O)c2ccc3c(c2)NC(=O)CO3)CC1
  0.69	-5	i	-14	2.3	-5.5	6.3
- O=C(Cn1c(-c2cncs2)nc2ccccc21)NC1CCCC1
  0.74	-6	.	-9	1.9	-0.3	4.2
- COC(=O)CSC1=C(C#N)C(c2ccc(C)o2)CC(=O)N1 (stereo unspecified)
  0.72	3	i	1	6.1	3.7	-0.4
- COc1cccc(C(C#N)N2CCCCC2)c1O (stereo unspecified)
  0.72	-2	.	-3	0.7	1.0	5.2
- O=C(CCCCCCCCCCC(=O)NCc1cccnc1)NCc1cccnc1
  0.64	-7	i	.	3.6	-2.8	-0.9
- Cc1cccc(C)c1NS(=O)(=O)c1ccc(F)cc1
  0.77	0	.	-26	6.4	2.0	2.7
- O=C1CN=C(Nc2ccccc2)N1Cc1cccs1
  0.68	-9	.	-7	2.0	-1.6	-1.4
- CCOC(=O)Cc1c(C)nc2c(-c3ccc(Cl)cc3)c(C)[nH]n2c1=O
  0.66	-1	i	14	-17	-2.1	-2.0
- COc1ccc(NC(=O)c2cc(-c3cc(OC)c(OC)c(OC)c3)nc3ccccc23)cc1OC
  0.69	13	i	-2	1.3	0.7	-0.9

Grouped by structure: those above containing a cyano group (two)
Value order: Ecoli growth	Beta2AR agonist	FGF22 binding	ALR H2O2 inh	UCH37 DUB inh	HNF4A DNA FP	LANA-H2B inh
- COC(=O)CSC1=C(C#N)C(c2ccc(C)o2)CC(=O)N1 (stereo unspecified)
  0.72	3	i	1	6.1	3.7	-0.4
- COc1cccc(C(C#N)N2CCCCC2)c1O (stereo unspecified)
  0.72	-2	.	-3	0.7	1.0	5.2

Continuation.
Value order: Ecoli growth	Beta2AR agonist	FGF22 binding	ALR H2O2 inh	UCH37 DUB inh	HNF4A DNA FP	LANA-H2B inh
- O=c1c2ccccc2ncn1Cc1ccccc1
  0.61	-2	i	-9	1.5	1.3	-1.9
- CCNC(=S)N1CCc2cc(OC)c(OC)cc2C1COc1ccccc1OC (stereo unspecified)
  0.67	-2	i	-2	-14	4.3	-6.1
- CCc1ccc(C(=O)C(C)OC(=O)c2nc3nc(C)cc(C)n3n2)cc1 (stereo unspecified)
  0.68	-11	i	0	0.2	2.6	-1.6
- CCCCNC(=O)N1CCc2[nH]c3ccccc3c2C1
  0.68	1	i	-15	-16	-4.1	4.5
- Cc1ccc2oc(C(=O)Nc3nnc(CC(C)C)s3)c(C)c2c1
  0.73	8	i	2	-4.4	-0.3	-3.5
- COc1ccccc1/C=N/Nc1cc(N(C)C)nc(N(C)C)n1
  .	6	i	5	.	5.2	-0.9
- O=C(CSc1nnc(CNC(=O)c2ccccc2F)o1)NCC1CCCO1 (stereo unspecified)
  0.72	-1	.	-2	0.2	1.4	-2.1
- O=c1[nH]cnc(O)c1Nc1cccc(Cl)c1
  0.68	3	i	.	2.4	-0.7	.
- c1ccc(Nc2nn[nH]n2)cc1
  0.68	-7	i	26	0.5	1.8	0.6
- CN(C(=O)Cn1nnc(-c2cccnc2)n1)C1CCCCC1
  0.7	.	i	-4	2.5	.	-8.1
- COc1ccccc1NC(=O)CCSc1nc(C)cs1
  0.66	1	i	-4	3.9	0.9	-1.4
- CCn1c(CCNC(=O)c2ccc(Cl)cc2)n[nH]c1=S
  0.64	10	.	?	1.0	-1.6	5.7
- Cc1ccc2[nH]c(O)c(N=NC(N)=S)c2c1
  0.68	3	i	-5	14	1.3	2.7
- O=C(OCc1nnc(-c2ccccc2)o1)c1cc(=O)c2ccccc2o1
  0.65	4	.	-11	6.0	-0.1	-3.2
- CN(C)C(=O)C12CCC(C)(c3nc4ccccc4nc31)C2(C)C (stereo unspecified)
  0.68	3	.	-2	3.1	1.6	-11
- O=C(NCCc1cccs1)C1CC(c2c(Cl)cccc2Cl)=NO1 (stereo unspecified)
  0.68	1	i	-2	1.3	-0.6	-0.3
- CN1CCN(C(=O)CN2C(=O)NC(C)(c3ccc4ccccc4c3)C2=O)CC1 (stereo unspecified)
  0.7	-7	i	-7	2.3	-1.1	-8.4
- O=C(NC1CCCCC1)C1CCCN1S(=O)(=O)c1ccc(F)cc1 (stereo unspecified)
  .	2	i	-56	.	-3.0	0.2
- COc1ccc(CC(=O)NCC(c2ccc(OC)cc2)N(C)C)cc1 (stereo unspecified)
  0.66	0	i	29	-1.2	3.0	1.4
- COc1ccccc1NC(=O)CSCc1cc(=O)n2ccsc2n1
  0.7	1	i	1	2.6	0.7	-4.6
- Cc1cccc(OCC(=O)O/N=C(\N)Cc2cccs2)c1
  0.62	-4	.	3	4.9	0.4	1.4
- Cn1nc(C(F)(F)F)cc1C(=O)Nc1ccc(Cl)cc1
  0.65	19	i	-6	3.1	-1.8	3.4
- NNc1nc2ccccc2nc1C(F)(F)F
  0.68	-6	i	-3	-8.8	-2.8	-3.5
- Cc1ccc(CSc2nnc(NC(=O)C3=COCCO3)s2)cc1
  0.68	0	i	-3	0.7	-2.5	-14
- COCCNC(=O)/C(C#N)=C/c1ccc(-c2ccc(S(=O)(=O)N3CCOCC3)cc2)o1
  0.69	-10	i	-6	-9.9	3.0	-3.6
- O=C1CC(C(=O)NCc2ccccc2)C2(CCCC2)O1 (stereo unspecified)
  0.69	4	.	-2	-0.1	1.8	1.3
- Cc1cc(NC(=O)c2ccc(S(=O)(=O)N3CCCC3)cc2)nc2c1c(=O)oc1ccccc12
  0.78	7	.	.	-12	7.7	.
- CCO[C@@H]1OC(C(=O)O)=C[C@H](c2ccc3c(c2)OCO3)[C@H]1CCCO
  .	10	i	-12	1.8	4.6	3.2
- CCNC(=O)N1CCCC(C(=O)c2ccc(-c3ccccc3)cc2)C1 (stereo unspecified)
  0.69	2	i	-3	7.6	2.2	0.4
- CC(C)(C)C(=O)NC1CCN(CC(=O)Nc2ccc3c(c2)OCO3)CC1
  0.67	-1	i	0	3.2	-4.6	1.2
- O=C(NC(Cc1ccccc1)C(=O)O)/C(=C\c1ccc(Cl)cc1)NC(=O)c1ccccc1 (stereo unspecified)
  0.67	-4	i	15	1.8	-1.0	4.5
- COc1ccc(C(C)=O)cc1CSc1ccccn1
  0.62	-16	i	-9	2.7	-0.9	-5.9
- CCc1ccc(-c2nc(CSCC(=O)NCCCN3CCCC3=O)c(C)o2)cc1
  0.71	3	.	99*	2.7	1.1	7.9
- C=CCn1c(C)c(C(C)=O)c(N2CCCC2)nc1=S
  0.75	4	.	1	4.4	-1.8	1.3
- COc1cccc(C2/C(=C(\O)c3ccc4c(c3)OCO4)C(=O)C(=O)N2CCN(C)C)c1OC (stereo unspecified)
  0.69	9	.	-5	7.4	1.4	-4.2
- Nc1nc(CCl)nc(Nc2ccc3ccccc3c2)n1
  0.67	28	i	.	4.2	-1.4	.
- O=S(=O)(NCc1ccco1)c1ccc(S(=O)(=O)N2CCCCC2)cc1
  0.67	4	i	-5	1.8	-1.1	-0.6
- CCN(CC)C1CCN(C(=O)CCn2nnnc2CN2CCOCC2)C1 (stereo unspecified)
  0.7	0	i	-3	-0.7	4.1	-2.7
- Cc1ccc(S(=O)(=O)N2CCC(C(=O)Nc3nnc(COc4ccccc4)s3)CC2)cc1
  0.66	4	i	.	1.7	-0.2	.
- FC(F)(F)C1=CC(c2ccccc2)=NCCN1
  0.76	-1	.	.	10	3.4	1.4

(cont.)
compound	Ecoli growth	Beta2AR agonist	FGF22 binding	ALR H2O2 inh	UCH37 DUB inh	HNF4A DNA FP	LANA-H2B inh
O=C(NC1CCCC1)C(c1ccccc1)N(Cc1ccc(F)cc1)C(=O)c1csnn1 (stereo unspecified)	.	24	i	1	.	1.8	-1.8
COc1ccccc1C(=O)NC1CCCc2ccccc21 (stereo unspecified)	0.64	6	i	-10	4.1	1.1	-4.2
Cc1cccc2sc(NC(=O)C3CCCO3)nc12 (stereo unspecified)	0.64	2	.	-12	0.2	0.8	1.3
CC(C)CN(CCNC(=O)CN1C(=O)COc2ccc(S(=O)(=O)N3CCOCC3)cc21)CC(C)C	0.71	2	i	-3	3.2	-1.2	5.3
O=C(NCc1ccc(F)cc1)c1cc2sccc2n1Cc1ccc(F)cc1	0.76	.	.	1	1.7	.	-1.9
CCOC(=O)c1ccc(NC(=O)NCc2cccnc2)cc1	0.68	2	i	4	4.0	-1.1	0.5
CCNc1nc2c(c(=O)n(Cc3ccccc3)c(=O)n2C)n1Cc1ccccc1	0.72	-6	.	-1	-7.2	-2.8	1.9
COc1ccc(CC(=O)OCC(=O)Nc2ccc(F)cc2)cc1	0.69	-6	i	.	0.0	0.7	.
CCN(C[C@H]1N[C@@](Cc2ccccc2)(C(=O)OC)[C@H]2C(=O)N(C)C(=O)[C@@H]12)C(=O)c1ccc(C(C)(C)C)cc1	0.69	-3	i	.	3.8	3.0	.
CCN(CC)S(=O)(=O)c1ccc(/C=C/C(=O)Nc2ccccc2N2CCOCC2)cc1	0.7	12	i	-2	0.2	-3.5	-7.9
COc1ccccc1Cn1c(CCCO)nc2ccccc21	0.75	0	.	-5	4.1	0.9	-5.5
O=C(c1ccco1)N(CCC(c1ccccc1)c1ccco1)Cc1ccc(F)cc1 (stereo unspecified)	0.68	24	i	-4	0.6	1.6	-4.5
Cc1cccc(N2N=C(C(=O)N3CC(=O)Nc4ccccc43)CCC2=O)c1	0.65	-2	i	-50	-0.5	3.9	-2.4
Cc1ccc(S(=O)(=O)N(C)C)cc1NC(=O)CSc1nnnn1-c1ccc(O)cc1	0.7	14	i	-10	-0.6	1.2	1.6
Cn1c(N)c(C(=O)COC(=O)COc2ccc(Cl)cc2Cl)c(=O)n(C)c1=O	0.67	-1	i	.	-0.6	3.5	4.6
COc1cc2c(cc1OC)CN(C(=O)c1ccc(OC)c([N+](=O)[O-])c1)CC2	0.7	-3	i	-20	3.8	1.4	-3.7
CCCCCCNS(=O)(=O)c1nc2nc(C)cc(C)n2n1	0.71	-5	i	5	0.7	-1.9	-6.1
COc1ccc(NC(=O)c2ccc([N+](=O)[O-])cc2[N+](=O)[O-])c(OC)c1	0.7	-1	.	-8	1.7	0.5	0.0
Oc1ccc(N=Nc2ccccc2)o1	0.67	8	i	34	1.9	1.9	2.7
Cc1c(NS(=O)(=O)c2ccccc2F)c(=O)n(-c2ccccc2)n1C	0.65	-4	i	1	0.9	3.0	-5.3

Among those listed so far, 2 contain a tert-butyl group:
compound	Ecoli growth	Beta2AR agonist	FGF22 binding	ALR H2O2 inh	UCH37 DUB inh	HNF4A DNA FP	LANA-H2B inh
CC(C)(C)C(=O)NC1CCN(CC(=O)Nc2ccc3c(c2)OCO3)CC1	0.67	-1	i	0	3.2	-4.6	1.2
CCN(C[C@H]1N[C@@](Cc2ccccc2)(C(=O)OC)[C@H]2C(=O)N(C)C(=O)[C@@H]12)C(=O)c1ccc(C(C)(C)C)cc1	0.69	-3	i	.	3.8	3.0	.

Some of the compounds tested. The share of hits here may be higher or lower than overall.
